Assay outcomes from PubChem.
S aureus helic: blocks Staphylococcus aureus DNA helicase. inhibition, %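 (tested at about 80 µM)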. purified S. aureus helicase, fluorescence unwinding assay; about half of the hits fall short of the stated cut. AID 485395. 120,000 compounds, 0.05% hits;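 active = both duplicates at 50% or more, or one of them with a favoured structure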;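 also: 0% = mean of negative control wells and 100% = mean of positive control wells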
MgrA DNA FP: S. aureus MgrA-DNA binding modulation; fluorescence polarization; inhibition, %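 (about 10 µg/mL by stock and volumes)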; 84,000 compounds, 0.13% hits;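 active = above 50% in either of two replicates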;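 also: 0% = protein plus DNA without compound and 100% = DNA alone without protein; higher means less MgrA bound to DNA so lower polarization; one replicate is shown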
Active calls of the source: *; / = not tested or not shown. A portion of the library. The share of hits here may be higher or lower than overall.

SMILES	S aureus helic	MgrA DNA FP
CCSc1nc2sc3c(c2c(=O)n1CC1CCCO1)CCC3 (stereo unspecified)	-11.0	/
Cc1ccc(Sc2c(-c3ccccc3)nc3ccccn23)cc1	/	-1.3
Cc1nn(-c2ccccc2)nc1CNC(=O)C1CCC1	/	-1.5
O=C(CSc1c2c(nc3ccccc13)CCC2)N1CCCC1	-5.0	0.0
CC(=O)Oc1ccc(C(O)(C(F)(F)F)C(F)(F)F)cc1	3.0	-2.2
O=C(/C=C/c1ccc(Cl)cc1Cl)Nc1cccc2cnccc12	-15.0	-0.8
O=c1[nH]cnc2scc(-c3ccc(F)cc3)c12	10.0	/
Cc1c2cnn(-c3ccccc3)c(=O)c2c(C)n1CCCC(=O)NCc1ccccn1	-19.0	/
CC1(C)CC(NCc2ccco2)=CC(=C(C#N)C#N)C1	-21.0	1.6
COC(=O)c1scc(S(C)(=O)=O)c1N=CN(C)C	/	-0.7
CC(C)(C)/C(O)=C/c1nc2cc(Cl)ccc2oc1=O	6.0	/
O=C1/C(=C/c2c(NCC3CCCO3)nc3ccccn3c2=O)SC(=S)N1C1CCCCC1 (stereo unspecified)	-31.0	-0.8
Cc1cccc(CN2C(=O)/C(=C\c3ccc(C(=O)N4CCN(C(=O)c5ccco5)CC4)cc3)Oc3ccccc32)c1	15.0	/
COC(=O)c1sccc1OCc1nnc(-c2ccc(C)cc2)o1	/	-1.6
O=C(CC12CC3CC(CC(C3)C1)C2)NCc1ccc2c(c1)OCO2	/	0.3
CC1Cc2nn(-c3ccccc3)c(-c3cccnc3)c2C(=O)C1C (stereo unspecified)	-1.0	1.5
CC(=O)Nc1ccc(C)c(NC(=S)Nc2ccc(Cl)c(Cl)c2)c1	/	-1.3
O=C1NC2(CCc3ccccc32)C(=O)N1Cc1ncc(-c2ccccc2)o1 (stereo unspecified)	-14.0	/
CCc1nc2ccccc2nc1N1CCN(C(=O)C(C)(C)C)CC1	/	-2.9
Cc1onc(-c2ccccc2)c1C(=O)N1CCCN2C(=O)c3ccccc3C21 (stereo unspecified)	/	4.1
CCOc1ccccc1C(=O)N[C@H](C(=O)Nc1c(N)nc(N)n(C)c1=O)C(C)C	-69.0	/
Cc1nn(-c2ccccc2)c(C)c1NC(=O)Cc1cccs1	15.0	/
CC(=O)Nc1ccc(S(=O)(=O)n2cnc3cc(C)c(C)cc32)cc1	4.0	-0.6
OC(c1ccccc1)c1nc2ccccc2[nH]1 (stereo unspecified)	-3.0	1.5
COc1ccc(C(=O)Nc2ccc3oc(Cc4ccc(Cl)cc4)nc3c2)cc1OC	/	-1.0
N/C(=C\C(=O)c1c(O)c(F)c(F)c(F)c1F)C(=O)O	1.0	-1.5
CCc1ccc(OCc2ccc(C(=O)O)cc2)cc1	-7.0	-2.2
Cc1cc(C(=O)N2CCN(Cc3ccc4c(c3)OCO4)CC2)nn1C	-4.0	/
CCc1ccc(NC(=O)CCCn2nc(CC)n3c(cc4occc43)c2=O)cc1	-22.0	/
NC(=O)Cn1c(=O)n(-c2ccccc2)c(=O)c2ccc(C(=O)NCc3ccco3)cc21	-13.0	/

Brought forward from above: 3 entries; new compounds follow.
SMILES	S aureus helic	MgrA DNA FP
Cc1cc(C(=O)N2CCN(Cc3ccc4c(c3)OCO4)CC2)nn1C	-4.0	/
CCc1ccc(NC(=O)CCCn2nc(CC)n3c(cc4occc43)c2=O)cc1	-22.0	/
NC(=O)Cn1c(=O)n(-c2ccccc2)c(=O)c2ccc(C(=O)NCc3ccco3)cc21	-13.0	/
CC1CCN(C(=O)CCNC(=O)c2ccccc2)CC1	-3.0	/
O=C(NCCC1=CCCCC1)c1ccc2c(c1)sc1nc(-c3ccccc3)cn12	-5.0	1.3
CC1=CC2=NC(=O)/C(=C\c3cccn3CCCOc3cc(C)cc(C)c3)C(=N)N2O1	-38.0	/
O=C(CCNC(=O)c1ccc(Br)o1)NC1CCCC1	5.0	0.2
O=C1CSC(c2cccc(C(F)(F)F)c2)N1c1ccc(F)c(Cl)c1 (stereo unspecified)	12.0	/
CCCn1cc(SCC(N)=O)c2ccccc21	-18.0	/
COc1ccccc1NC(=O)Cc1ccc(Br)cc1	12.0	-1.5
O=S(=O)(c1ccc(Br)cc1)c1cc(C(F)(F)F)cc(C(F)(F)F)c1	/	-1.8
COc1cccc(-c2nc(S(=O)(=O)c3ccc(C)cc3)c(N(C)C)o2)c1	9.0	0.0
Cn1nccc1NS(=O)(=O)c1ccc(NS(=O)(=O)c2ccc(Cl)cc2)cc1	/	0.3
O=C(Cn1cnc2ccc(Br)cc2c1=O)OCc1ccccc1	16.0	/
CCn1nnc2c(N3CCN(c4ccc(OC)cc4)CC3)ncnc21	13.0	/
Cc1cc(NC(=O)COc2cc(C)c(Cl)c(C)c2)no1	4.0	-2.4
Cc1ccc(OCc2ccc(Cl)cc2)c(C(C)(C)C)c1	3.0	-0.6
COc1cc2nc(CC(C)C)n(N)c(=O)c2cc1OC	3.0	3.3
COC(=O)Cn1nc2c3c(cccc31)C(=O)c1ccccc1-2	11.0	/
C1CCC(Nc2nnnn2C2CCCCC2)CC1	-3.0	-0.3
COC(=O)C1=C(Nc2ccccc2NS(=O)(=O)c2ccc(Cl)cc2)CSC1	/	0.1
CC(=O)N1CCC2(CC1)C(C#N)=C(N)OC1=C2C(=O)CCC1	4.0	/
O=C(O)CSc1c2c(nc3cc(C(=O)NCCN4CCOCC4)ccc13)CCC2	-12.0	/
COC(=O)c1sc(N2CCCCC2)c(C#N)c1N	/	4.2
c1ccc(Nc2cccc3nccnc23)cc1	5.0	-1.3
COc1ccc(N2CCN(CCCNC(=O)c3cccc(Nc4nc5ccccc5n5nnnc45)c3)CC2)cc1	-24.0	/
Cc1cc(NC(=O)C(Cc2ccccc2)NS(=O)(=O)c2cccc3cccnc23)no1 (stereo unspecified)	8.0	/
Cc1ccc(NC(=O)c2cc(=O)[nH]c(=O)[nH]2)cc1	13.0	-0.4
Cc1ccc(C(CC(=O)N2CCCCC2)N2Cc3ccccc3C2=O)cc1 (stereo unspecified)	-28.0	/
COc1ccc(OC)c(C(=O)CSC#N)c1	4.0	6.2
CCN(CC)c1ccc(C(=O)OCC(=O)NC2CCCCC2)cc1	7.0	1.0
CCC(C(=O)NCCc1cc2ccc(OC)cc2[nH]c1=O)c1ccccc1 (stereo unspecified)	-13.0	/
CCCCCCCCCCCCCC(=O)N[C@@H](C)[C@H](O)c1ccccc1	/	-0.4
Nc1nc(N(Cc2ccccc2)Cc2ccccc2)nc(C(F)(F)F)n1	1.0	-0.3
O=S(=O)(c1ccccc1)n1nc(-c2cccnc2)nc1NCc1cccs1	-1.0	-0.6
O=C(O)CCC(=O)Nc1ccc(COc2ccccc2)cc1	5.0	0.2
CS/C(NCc1cccnc1)=C(/C#N)S(=O)(=O)c1ccc(Cl)cc1	/	5.2
COC(=O)c1cc(S(=O)(=O)NCC(C)c2ccccc2)cn1C (stereo unspecified)	17.0	/
Cc1cc2ncn(/N=C/c3ccc4c(c3)OCO4)c2cc1C	-26.0	2.6
CCOC(=O)c1ccccc1NC(=O)CN1C(=O)c2cccc3cccc1c23	-13.0	/
O=C(O)c1cnn2c(C(F)(F)F)cc(-c3ccc(F)cc3)nc12	-1.0	/
O=C(CCSCc1cnn(-c2ccccc2)c1-n1cccc1)N1CCCCCC1	19.0	/
CC(=O)Oc1ccc(-c2cccc(C(=O)O)c2)cc1	18.0	/
O=C(COc1ccc(S(=O)(=O)N2CCOCC2)cc1)NCCC1=CCCCC1	11.0	-2.3
CN(Cc1cccs1)C(=O)Cn1cnc2ccccc2c1=O	-10.0	/
O=C(CC(c1ccccc1)c1ccccc1)NCCn1ccc2ccccc21	1.0	0.3
COC(=O)Cc1cc(=O)[nH]c(/N=C(\N)Nc2ccccc2)n1	11.0	4.4
O=C1NC(c2ccc(Cl)cc2)=CC(c2ccc(Cl)cc2)N1 (stereo unspecified)	8.0	-3.2
Cc1cc2c(n1-c1ccc(C(=O)NCCN(C)C)cc1)CCCC2	12.0	/
Oc1c(C(Nc2ccccn2)c2cccnc2)ccc2cccnc12 (stereo unspecified)	12.0	/
CC1(C)CC(=O)c2cc(-c3ccc(Br)cc3)n(CC(=O)O)c2C1	14.0	4.1
O=C(NC1CCN(Cc2ccccc2)CC1)C1=Cc2cc(Cl)ccc2OC1	/	-1.8
CCc1ccc(S(=O)(=O)Nc2ccncc2)cc1	14.0	/
More structures:
SMILES	S aureus helic	MgrA DNA FP
NC(=O)C1CCN(C(=O)c2sc3ccccc3c2Cl)CC1	44.0	3.3
CCOC(=O)c1cc(-c2ccc(S(=O)(=O)N(Cc3cccs3)C3CCCCC3)s2)on1	8.0	/
CNc1nc(-c2ccc(O)cc2O)cs1	10.0	/
CC(C)Cn1c(SCC(=O)NCC(F)(F)F)nc2ccccc21	-6.0	/
COc1cc(NC(=O)[C@@H](NC(=O)c2cc(OC)cc(OC)c2)C(C)C)cc(OC)c1	-8.0	/
CCOc1ccc(C2CC(=O)NC(SCC(=O)Nc3cccc(OC)c3)=C2C#N)cc1 (stereo unspecified)	3.0	/
Cc1ccn2c(=O)cc(CNCC(c3ccco3)N3CCCCC3)nc2c1 (stereo unspecified)	1.0	/
COC(=O)c1ccc(COC(=O)c2oc3ccc(OC)cc3c2C)o1	10.0	/
CC(=O)Oc1ccc(C(=O)O)cc1OC(C)=O	4.0	/
O=C(NC1CCCc2ccccc21)c1cc2ccccc2o1 (stereo unspecified)	-6.0	/
COc1ccc(NC(=O)CCS(=O)(=O)c2cc(Br)cc3c2N(C(=O)C2CC2)CC3)cc1OC	5.0	/
O=C(Nc1cnc2sccn2c1=O)c1ccccc1	27.0	/
CC1CN(CCC(=O)Nc2ccc3c(c2)OCCO3)CC(C)O1 (stereo unspecified)	11.0	/
CCOC(=O)c1cnc2nc(CCc3ccccc3)[nH]n2c1=O	3.0	-2.8
CSc1nc2nc(-c3cccc(C(F)(F)F)c3)ccn2n1	/	-0.1
O=C(NCCc1ccccc1)c1ccc(=O)[nH]n1	10.0	/
COc1cccc(OCC(=O)Oc2ccc(C#N)cc2)c1	9.0	/
CNCc1cc2ccccc2o1	17.0	0.6
O=S(=O)(NCCCn1ccnc1)c1ccc2ccccc2c1	16.0	-6.2
CCCCCCCCCCCCCCCC(=O)NCCO	/	-0.1
CCOC(=O)c1cc(C)[nH]c(=S)c1C#N	10.0	-0.3
Cc1ccc2c(=O)c(C(=O)c3ccccc3)cn(CC(N)=O)c2n1	4.0	/
COc1nnc(-c2ccccc2)c2ccccc12	/	0.4
CCOC(=O)C1=C(Cn2ccnc2)NC(=O)NC1c1ccc(OC(C)C)cc1 (stereo unspecified)	37.0	/
COc1cc(C=C2C(=O)NC(=S)NC2=O)cc(Cl)c1OCCOc1ccc(C)cc1	/	22.4
CCN1CCC(NC(C)c2ccc(OC)cc2)CC1 (stereo unspecified)	13.0	0.1
CCC(=O)c1cn(CC(=O)N(CC)CC)c2ccccc12	-12.0	1.8
O=C(NCCCn1ccnc1)c1cc(-c2cccs2)on1	13.0	/
O=C1NC(=O)c2ccc3c4c(ccc1c24)C(=O)N(c1ccccc1)C3=O	24.0	/
Cc1cc(C(=O)COC(=O)c2ccc(S(=O)(=O)N(C)C)cc2)c(C)n1-c1ccc2c(c1)OCO2	-13.0	/
CCc1ccc2nc(NC(=O)c3c(C)oc(-n4cccc4)c3C#N)sc2c1	-10.0	/
CC(Sc1nnc(-c2ccc3c(c2)OCO3)o1)C(N)=O (stereo unspecified)	-7.0	1.6
O=C(O)c1cc(-c2ccccc2Cl)on1	8.0	-1.5
FC(F)(F)c1cc(-c2ccccc2)nc2ncnn12	-14.0	/
COC(=O)CN1C(=S)N(c2ccccc2)C(=O)C1CC(=O)Nc1ccc(F)cc1 (stereo unspecified)	6.0	-4.9
O=C(/C=C/c1ccc(Br)o1)Nc1ccc(F)cc1F	-6.0	0.8
CCN(Cc1cn2cccnc2n1)C1CCCCC1	5.0	/
O=S(=O)(c1ccccc1)c1cccc(S(=O)(=O)N2CCCC2)c1	5.0	1.0
CC(Oc1ccc(Br)cc1Cl)C(=O)NC(N)=O (stereo unspecified)	5.0	/
CC(=O)N1c2ccc(S(=O)(=O)NC(C(=O)Nc3nccs3)C(C)C)cc2CC1C (stereo unspecified)	-25.0	/
COc1cccc2sc(=NC(=O)C3=COCCO3)n(C)c12	0.0	/
O=C(CN1CCC(O)(c2ccccc2)CC1)NC1CCCCC1	19.0	-33.4
CC[C@H](C)[C@H]1O[C@]2(CC[C@@H]1C)C[C@@H]1C[C@@H](C/C=C(\C)C(O[C@H]3C[C@H](OC)[C@@H](O[C@H]4C[C@H](OC)[C@@H](O)[C@H](C)O4)[C@H](C)O3)[C@@H](C)/C=C/C=C3\CO[C@@H]4[C@H](O)C(C)=C[C@@H](C(=O)O1)[C@]34O)O2 (stereo partly specified)	/	-0.6
CN1CCCN(C(=O)c2ccc(C#N)cc2)CC1	15.0	1.4
CCn1c(SCc2c(F)cccc2Cl)nc2cc(S(N)(=O)=O)ccc21	-3.0	/
CCCN(CCC)S(=O)(=O)C1CCS(=O)(=O)C1 (stereo unspecified)	34.0	/
N#CC1(N2CCOCC2)CCCCC1	/	0.7
O=c1c2cc(NC(=S)NCc3ccccn3)ccc2nc2n1CCCCC2	3.0	-1.7
CC12CCC(C(=O)O)(CC1=O)C2(C)C (stereo unspecified)	-4.0	/

Entries of single compounds, quoted from the list. Values in the order: S aureus helic, MgrA DNA FP
`CC(=O)Nc1ccc(C)c(NC(=S)Nc2ccc(Cl)c(Cl)c2)c1` across the screens: /, -1.3
`COC(=O)Cc1cc(=O)[nH]c(/N=C(\N)Nc2ccccc2)n1` across the screens: 11.0, 4.4
`Cc1ccc2c(=O)c(C(=O)c3ccccc3)cn(CC(N)=O)c2n1` across the screens: 4.0, /
`CCCn1cc(SCC(N)=O)c2ccccc21` across the screens: -18.0, /
`O=C(CC12CC3CC(CC(C3)C1)C2)NCc1ccc2c(c1)OCO2` across the screens: /, 0.3
